Screens as filed in PubChem.
GIV Gai3 FP – inhibitors of GIV GBA-motif binding to rat Galpha-i3; P08753; Galpha-i3/FITC-GIV peptide fluorescence polarization, 90 min; stronger effect = lower value; scaled: aluminum fluoride 0%, vehicle 100%; percent of control (FP), % (test concentration not listed); 0.42% of 210,000 active; AID 1224905;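 active = replicate mean at 85% of control or lower, very high polarization wells dropped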;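 also: wells of about 15 µL received 100 nL stock; the first replicate is given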
Target sequence (P08753 whole entry, looked up): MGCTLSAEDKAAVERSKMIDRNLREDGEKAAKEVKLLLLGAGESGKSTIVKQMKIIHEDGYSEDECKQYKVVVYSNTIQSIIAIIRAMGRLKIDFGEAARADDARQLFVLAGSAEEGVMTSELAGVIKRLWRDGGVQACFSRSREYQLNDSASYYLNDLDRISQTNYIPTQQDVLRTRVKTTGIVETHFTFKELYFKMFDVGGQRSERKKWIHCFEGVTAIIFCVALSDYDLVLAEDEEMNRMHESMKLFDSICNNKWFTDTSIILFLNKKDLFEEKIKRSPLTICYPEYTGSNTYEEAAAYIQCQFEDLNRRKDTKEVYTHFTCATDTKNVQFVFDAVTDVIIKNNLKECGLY
HCMV NEC inh – inhibitors of HCMV UL50-UL53 nuclear egress complex interaction. HTRF UL50-UL53 interaction, normalized percent inhibition. inhibition, % (concentration not given with the values). 0.15% of 190,000 active;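 active = both replicates at 50% or more, plus weaker picks with an unusually low signal ratio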;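 also: stock transfer was 100 nL into about 20 µL; 0% = negative control wells and 100% = wells with untagged competitor protein; inactives centre near -12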
Sa growth inh – S. aureus growth inhibition; relative growth, % (no concentration beside the values); S. aureus RN4220 growth, OD600, 20 h, 42 °C; stronger effect = lower value; 0.53% of 170,000 active;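 active = growth at 42 °C up to 50% and 20 or more points under that at 30 °C, or under 10% at both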;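 also: 300 nL library stock went into each well; scaled to the means of positive and negative controls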
Sa growth inh second temp – further read-out of Sa growth inh, marked with its call; relative growth, %; measured here: growth at 30 °C;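 optical density after 20 h as mean of two plates; 100% = untreated growth and lower means inhibition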
Active calls of the source: *; · = not tested or not shown; & = joins results of further samples.

SMILES,GIV Gai3 FP,HCMV NEC inh,Sa growth inh,Sa growth inh second temp
CCOC(=O)C1=C(C)NC(C)=C(C(=O)OCC)C1C(=O)OCc1cn2cc(Cl)ccc2n1,·,-21,96,91
COC(=O)c1ccc(Cn2c(SCc3ccc(F)cc3)nc3ccncc32)cc1,97,-12,107,75
Cn1ccsc1=NC(=O)/C=C/c1ccc2c(c1)OCO2,·,-75,76,98
COc1cc2c(cc1OC)CN(Cc1cccs1)CC2,103,-28,122,101
O=C(CN1CCN(S(=O)(=O)c2cccs2)CC1)Nc1ccc(S(=O)(=O)N2CCCC2)cc1,·,-8,103,91
CCOC(=O)c1c(C)[nH]c(C(=O)N2CCC(C(C)C(=O)NCc3ccc(F)cc3)CC2)c1C (stereo unspecified),103,-9,·,·
Cc1cccc(-c2nnc(SCc3cc(=O)c4cccc(Cl)c4[nH]3)n2C)c1,104,·,92,89
O=C(Nc1ccccc1)Nc1cccc(F)c1,100,-4,38,57
CC(C#N)(NC(=O)CN1CCN(C/C=C/c2ccccc2)CC1)C1CC1 (stereo unspecified),·,-6,111,85
CC1=NN(C)c2nc3c(c(=O)n(C)c(=O)n3C)n2C1,99,-30,84,92
CNc1c(NC(=O)c2ccccc2OC)c(=O)oc2ccccc12,100,-17,97,85
CN(C(=O)COC(=O)c1ccccc1O)C1(C#N)CCCCC1,·,-1,99,100
Cc1ccc(CS(=O)(=O)Cc2ccc(C(=O)N3CCc4ccccc4C3)o2)cc1,99,·,126,100
COc1ccc(CCNC(=O)Cn2ccc3ccccc3c2=O)cc1OC,102,·,110,92
CCCSc1nc(=O)c2cccnc2n1-c1ccc(OC)cc1,103,5,96,97
CC(C)CCNC(=O)c1ccc2c(c1)N(Cc1ccccc1F)C(=O)c1ccccc1S2(=O)=O,99,-27,86,100
CC(C)CNc1oc(-c2ccccc2)nc1C#N,·,-33,93,93
O=C(CCCn1c(=O)c2ccc(Cl)cc2n(CC(=O)c2ccc(Cl)cc2)c1=O)NCc1ccco1,105,3,104,85
CCc1ccc(NC(=O)COC(=O)C2CCN(c3nc4ccccc4o3)CC2)cc1,·,1,114,85
CCc1ccc(NC(=O)CSc2nc(=O)n(Cc3cccnc3)c3c2CCC3)cc1,102,·,129,58
FC(F)(F)c1ccc(C2=NCCc3sccc32)cc1,104,-44,77,85
O=C(NCCCN1CCCC1=O)c1cccnc1,105,-2,104,108
CCN(CC)c1ccc(C(=O)OCC(=O)N2C(C)CCCC2C)cc1 (stereo unspecified),·,-13,86,88
COC(=O)C1=C(C)C(c2cccc(Oc3ccccc3)c2)NC(=O)N1 (stereo unspecified),105,-6,89,57
Cc1cccc(Cn2cccc2CNS(=O)(=O)c2ccc(C)c(C)c2)c1,106,·,98,76
CCCCN(CC)C(=O)c1nn(-c2ccc(OC)cc2)c(=O)c2ccccc12,105,·,112,92
COc1ccccc1NC(=O)Cn1c(=O)n(-c2ccc(C)cc2)c(=O)c2c1cnn2C,104&104,-22&-31,98,97
CSc1ncc(C(=O)OCC(=O)c2ccc(NS(C)(=O)=O)cc2)n1-c1ccccc1,·,-34,103,77
CC(C)c1ccc(-c2nn(-c3ccccc3)cc2C(=O)Oc2ccc(-c3nnco3)cc2)cc1,·,-7,86,95
Cc1cc(N2CCN(c3ccccc3)CC2)n2nc(C)c(-c3ccc(Cl)cc3)c2n1,102&109,·,108,94
O=C(NCCc1c[nH]c2ccccc12)c1ccc(NC(=O)N2CCCCc3ccccc32)cc1,103,-10,·,·
CCCNC(=O)c1ccc(COc2ccc3ccccc3c2)cc1,100,-15,87,61
Cc1ccc(NC(=O)CCn2cnc3onc(-c4ccc(F)cc4)c3c2=O)c(Br)c1,107,·,115,87
Cc1nn(C)c(C)c1Cc1ccc(O)cc1,101,-12,·,·
Cc1cc(C)n(CC(=O)Nc2ccc(C(C)C)cc2)c(=O)c1S(=O)(=O)c1ccc(Br)cc1,100,-22,·,·
CC(C)S(=O)(=O)c1ccc(N2CCN(c3ccc(F)cc3)CC2)nn1,101,-11,·,·
COc1cccc(-c2nc(CS(=O)(=O)CC(=O)Nc3c(C)cc(C)cc3C)c(C)o2)c1,105,-14,106,96
CCOC(=O)CSc1sc(C(=O)OCC)c(-c2cccs2)c1C#N,102,-4,92,79
CCc1ccc(NC(=O)N(Cc2c[nH]c3ccccc23)C(C)C)cc1,106,·,97,85
N#Cc1ccc(COC(=O)CCSc2ccccc2)cc1,·,-12,113,96
COC(=O)c1cc2sc(Cl)cc2n1Cc1nc(-c2ccccc2C)oc1C,100,-19,114,89
COc1ccccc1/C=C/C=N\NC(=O)Cc1cccn1C,111,-20,100,97
O=C1C2C3C=CC(C3)C2C(=O)N1Cc1ccccc1Cl (stereo unspecified),107,·,111,82
Cc1ccccc1-c1noc(-c2cc3ccccc3oc2=O)n1,101,·,125,92
CC1c2cccn2-c2sc3c(c2CN1C(=O)NC1CCCC1)CCCC3 (stereo unspecified),106,-29,·,·
CC1CN(C(=O)c2ccc3ccccc3n2)CC(C)O1 (stereo unspecified),·,-40,108,92
CC1(C)CC(=O)OC1(C)C,·,1,87,93
COc1ccc(N2CCN(S(=O)(=O)c3cc(Br)cc4c3N(C(=O)C3CC3)CC4)CC2)cc1,98,-3,106,96
COc1ccc(CCNC(=O)c2cc(=O)c3cc(C)cc(C)c3o2)cc1OC,105,-19,114,86
O=C(Nc1ccccc1)C1CCN(c2ncnc3c2nc2n3CCCCC2)CC1,102,-22,112,100
Cc1ccc(CCC(N)=O)o1,120,1,110,102
CCCn1c(=O)c2ccccc2n2c(=O)n(CC(=O)Nc3ccc(F)cc3)nc12,109,-12,·,·
Cc1nc(=O)c(-c2ccccc2)c(C)n1-c1ccc(C(=O)O)cc1,97,·,92,84
COc1ccccc1CCNC(=O)c1cnn2c(C(F)F)cc(C)nc12,111,-6,110,92
Cc1nc(N=Nc2c(O)[nH]c3ccccc23)c2c3c(sc2n1)CCCC3,·,-2,92,98
COC(=O)c1cc(-c2ccc(S(=O)(=O)NCc3ccncc3)cc2)c(C(F)(F)F)s1,103,-10,113,87
COc1ccc(N(CC(=O)NCCSc2ccccn2)S(=O)(=O)c2ccc(C)cc2)cc1OC,104,-13,·,·
CC(=O)Nc1cc2c3c(c1)CC(=O)N3CCC2,104,-26,97,86
O=C(CSc1cccc[n+]1[O-])c1ccc(Cl)s1,·,-100,84,76
CC1CCN(S(=O)(=O)c2ccc3c(c2)N(CC(=O)NC(C)(C)C)C(=O)CS3)CC1,111,-3,79,100

Whole records as entered above.
`COc1ccc(CCNC(=O)c2cc(=O)c3cc(C)cc(C)c3o2)cc1OC` in the list: GIV Gai3 FP = 105; HCMV NEC inh = -19; Sa growth inh = 114; Sa growth inh second temp = 86
`Cc1ccccc1-c1noc(-c2cc3ccccc3oc2=O)n1` in the list: GIV Gai3 FP = 101; HCMV NEC inh = ·; Sa growth inh = 125; Sa growth inh second temp = 92
`CC1(C)CC(=O)OC1(C)C` in the list: GIV Gai3 FP = ·; HCMV NEC inh = 1; Sa growth inh = 87; Sa growth inh second temp = 93

Later entries:
SMILES,GIV Gai3 FP,HCMV NEC inh,Sa growth inh,Sa growth inh second temp
COC(=O)C(C)n1cnc2c(cnn2-c2ccc(F)cc2)c1=O (stereo unspecified),106,-17,87,88
Cc1ccccc1Cn1cnc2sc(C)c(C)c2c1=O,·,-11,121,98
O=C(C1CC1)N1N=CCC1(O)C(F)(F)F (stereo unspecified),·,-26,115,88
CCCCN(CCCC)S(=O)(=O)c1cc2c(cc1C)NC(=O)CO2,104,-8,·,·
Cc1nn(CC(C)C)c(C)c1CC(=O)O,·,-18,111,93
CCNC(=S)Nc1c(C)cccc1C,·,-10,103,86
COc1ccccc1NC(=O)c1ncn(-c2ccccc2)n1,112,-6,95,94
O=C(NC1CCS(=O)(=O)C1)c1cccc(C(F)(F)F)c1 (stereo unspecified),·,1,97,96
O=C(NC1CCCCC1)C(c1ccco1)N(C(=O)C1COc2ccccc2O1)c1cccc(F)c1 (stereo unspecified),96,-10,87,100
CCOc1ncccc1C(=O)N(C)Cc1c(C)nn(-c2ccccc2)c1C,·,-30,66,90
CCn1c(=O)c(=O)n(CC)c2cc(NS(=O)(=O)c3ccc(OC)cc3)ccc21,101,-20,·,·
N=Cc1cc(-c2ccccc2)oc1S,101,·,140,7
CCOC(=O)CSc1nc2nccnc2c(=O)n1CCc1ccccc1,103,·,94,87
Cc1cc(C)c(Cn2c(C3CC(=O)N(c4ccc(F)cc4)C3)nc3ccccc32)c(C)c1 (stereo unspecified),102,-25,103,83
CCOc1ccc(-c2cn(-c3ccc(C)cc3)c(SCC(=O)Nc3ccc(C)cc3)n2)cc1,105,·,123,80
COc1ccc2c(Sc3ccc(C)cc3)c(C(=O)NC(C)C)[nH]c2c1,99,-20,120,103
CN(CC(=O)N(Cc1cccs1)c1ccc2c(c1)OCCO2)Cc1ccco1,·,-36,66,93
O=C(NC1=C(C(=O)c2ccccc2)N(Cc2ccccc2)S(=O)(=O)c2ccccc21)c1ccccc1,104&111,4,110,88
Cc1c(C(=O)NCc2ccccc2Br)oc2c1-c1[nH]ncc1CC2,108,-10,113,72
CCOC(=O)C1(C2(O)C(=O)c3ccccc3C2=O)CCCC1=O (stereo unspecified),95,8,107,73
O=C(Cn1c(=O)c2cccn2c2ccc(F)cc21)NCCN1CCCCCC1,101,-12,85,88
c1ccc(CSc2nncn2-c2ccc3c(c2)OCCO3)cc1,106,0,107,67
Cc1ccc(-n2nnc(-c3nc(-c4cccs4)no3)c2N)cc1C,98,·,81,84
COC(=O)Cn1cnc2c(nnn2Cc2ccc(Cl)cc2)c1=O,97,·,89,76
CC(O)c1nc2ccccc2n1Cc1ccc(Cl)cc1Cl (stereo unspecified),·,-4,99,98
Cc1ccc(-n2c(SCc3cc(C)on3)nc3sc(C)c(C)c3c2=O)c(C)c1,·,6,111,98
O=C1CCCCC(=O)c2ccccc2N1,101,-2,94,93
CC(C)(C)c1nnc(-c2cccc(NS(=O)(=O)c3ccc(-c4ccon4)s3)c2)o1,100,-36,95,98
c1cc2c(cc1CNC1=NCCC1)OCO2,·,-20,144,89
O=C(Cn1c(=O)oc2ccccc21)N1CCC(c2ccccc2)C1 (stereo unspecified),104,4,102,107
Cc1nnc(SC/C=C/c2ccccc2)[nH]c1=O,109,28,108,80
O=C1c2ccccc2C(=O)N1CC(=O)N1c2ccccc2Sc2ccccc21,104,·,101,87
O=C(Nc1n[nH]c(C(=O)O)n1)c1ccc(Br)cc1,99,-2,·,·
CCn1c(=O)n(CC)c2cc(NC(=O)Cn3cnc4ccccc43)ccc21,103,4,112,80
CCCCCCCCCCCCCCCC(=O)OC[C@H](NC(=O)C(Cl)Cl)[C@H](O)c1ccc([N+](=O)[O-])cc1,·,-14,83,69
CC1CC(C)CN(C(=O)c2cc(-c3ccccn3)nc3ccccc23)C1 (stereo unspecified),·,-48,89,83
CN1CCN(c2oc(/C=C/c3ccc(F)cc3)nc2C#N)CC1,103,-50,84,85
COc1ccc(Br)c(-c2nc(-c3ccccc3)no2)c1,110,3,101,89
CCCOC(=O)c1ccc(Cn2nnc3sc4c(c3c2=O)CCC(C)C4)cc1 (stereo unspecified),101,-38,86,85
Cc1ccc(N2CC(=O)Nc3c(oc4nc(-c5ccccc5)cc(C)c34)C2=O)cc1,100,-3,102,99

Quoted from the listing.
Result of COC(=O)c1ccc(Cn2c(SCc3ccc(F)cc3)nc3ccncc32)cc1 under GIV Gai3 FP: 97
Result of O=C1C2C3C=CC(C3)C2C(=O)N1Cc1ccccc1Cl (stereo unspecified) under GIV Gai3 FP: 107
Result of CC(C#N)(NC(=O)CN1CCN(C/C=C/c2ccccc2)CC1)C1CC1 (stereo unspecified) under Sa growth inh second temp: 85
Result of c1cc2c(cc1CNC1=NCCC1)OCO2 under Sa growth inh second temp: 89
Result of Cc1nn(CC(C)C)c(C)c1CC(=O)O under Sa growth inh second temp: 93
Result of Cc1cccc(-c2nnc(SCc3cc(=O)c4cccc(Cl)c4[nH]3)n2C)c1 under GIV Gai3 FP: 104

(continued)
SMILES,GIV Gai3 FP,HCMV NEC inh,Sa growth inh,Sa growth inh second temp
CCCc1oc2cc(O)ccc2c(=O)c1Oc1ccc(F)cc1,102,4,77,57
COc1ccc(S(=O)(=O)c2ccc(O)cc2)cc1,102,-7,119,102
O=C1c2cccc3cccc(c23)C(=O)N1c1ccc2c(c1)OCO2,105,-5,97,95
Cc1nccn1CCN,107,-8,103,95
CC(CCc1ccccc1)NC(=O)CN1CCOc2ccccc21 (stereo unspecified),102,0,90,81
Cc1c(C)n(-c2ccccc2)c2ncn(CCC(=O)NCCN3CCOCC3)c(=O)c12,102,-19,·,·
COC(=O)C1C(=O)NC(S)=C(C#N)C1c1ccccc1Cl (stereo unspecified),143,-12,65,18
N#Cc1c(F)cccc1NCc1cccnc1,95,-16,80,82
O=C(Nc1ccccc1-c1nc2ccccc2[nH]1)c1ccc(C(=O)c2ccccc2)cc1,112,5,·,·
